PMP22 txn prim: modulators of PMP22 gene transcription in S16 Schwann cells; S16 Pmp22-F2sN Schwann cells (luciferase reporters placed in the Pmp22 gene), FLuc/NLuc coincidence luminescence, 24 h; Potency, µM (series often up to 57.5 µM), inactives show at the highest dose activity change, negative = inhibition, usual class: inhibitors; 43,000 compounds, 2% hits; AID 1508649; active = clear falling dose curves in both reporters; inconclusive = both reporters move, but less clearly or upward; inactive = either reporter flat; the % is the NLuc reporter signal; further: on the % scale 0 is the no-effect control and ±100 the full control effect; some results filed as inactive show a strong effect at the top dose
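S16 Schwann cells carrying FLuc/NLuc coincidence reporter in the Pmp22 3' UTR treated with compound 24 h at 37C; FLuc then NLuc luminescence read sequentially by dual-luciferase reagents.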
HTT promoter inh: HTT promoter inhibition; 48,000 compounds, 0.93% hits; HEK293 HTT promoter firefly luciferase reporter (activity 0% = vehicle and -100% = no light), 24 h; AID 1508623; Potency, µM (doses to about 57.5 µM), inactives show at the highest dose activity change, negative = inhibition, actives largely listed as inhibitors; active means well fitted inhibition curve with a large enough effect; inconclusive means small, poorly fitted or top-dose-only effect; inactive means no such curve, though single readings can be large or run the other way; further: nearly all actives have a fitted effect of over 50% in size
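HEK293 luciferase promoter-reporter cells (2,500/well) plated 24 h, then compounds added at up to 57.5 uM final for 24 h at 37 °C. Firefly luminescence by Dual-Glo, normalized to vehicle (0%) and zero RLU (-100%).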
An asterisk follows results filed as active; ? = inconclusive; . = no result given; [ ] = dose if it differs, or a comment. Potency means the concentration at half of the fitted maximal effect.

SMILES	HTT promoter inh	PMP22 txn prim
Cc1cc(Nc2ccc(F)cc2)nc(-n2nc(C)cc2C)n1	?	?
CCc1ccc(/C=C(/C#N)c2nc(-c3ccc(C)cc3)cs2)cc1	2.0%	-11.7%
COc1ccc(C(=O)N2CCC(c3c[nH]c4ccccc34)(c3c[nH]c4ccccc34)CC2)cc1	?	2.8%
COc1cc(OC)c(NC(=O)Cn2c(=O)cc(C)c3c(C)nn(-c4ccc(C)cc4)c32)cc1Cl	0.0%	-20.9%
COc1ccc(C2=C(C)C(N3CCN(c4ccc(OC)cc4)CC3)=NS2(=O)=O)cc1	-15.3%	0.8%
CCCCCn1cc2c(c1-c1ccc(Br)cc1)c(=O)n(C)c(=O)n2C	-5.0%	?
Cc1cccc(C)c1NC(=O)c1c(C)oc2c1C1=NCCN1C=N2	-7.2%	107.5%
CCOc1ccccc1NC(=O)c1cc(S(=O)(=O)NC2CCCC2)ccc1F	-29.1%	-21.3%
Cc1ccccc1NC(=O)c1c(NC(=O)C(C)Oc2cccc(Cl)c2)sc2c1CCCC2 (stereo not given)	-16.9%	-2.8%
O=C(CSc1nc2c(oc3ccccc32)c(=O)n1Cc1ccco1)Nc1ccccc1Cl	-15.8%	?
CC(C)c1ccc(NC(=O)c2cc3sc(Cl)cc3n2C)cc1	10.4%	?
COc1ccc(NC(=O)Cn2c(=O)n(CCc3ccccc3)c(=O)c3ccccc32)cc1	15.3%	-46.4%
Cc1ccc(S(=O)(=O)c2nnn3c2nc(NC2CCCCC2)c2sccc23)cc1C	?	?
COC(=O)c1cc(NC(=O)Cn2nc(-c3ccccc3)c3c(c2=O)CCCC3)cc(C(=O)OC)c1	-4.5%	-4.1%
CCOC(=O)c1cc(-c2ccc(OC)cc2)n(CCC(=O)NC2CCC(C)CC2)c1C (stereo not given)	-10.5%	-26.8%
Cc1cccc(OCC(=O)Nc2ccc(Cl)c(-c3nc4ccccc4[nH]3)c2)c1	-11.8%	-4.3%
CC(C)c1ccc(S(=O)(=O)c2nnn3c2nc(NCCc2ccccc2)c2sccc23)cc1	-15.1%	?
Cc1nn(S(=O)(=O)c2ccc(C(C)C)cc2)c(C)c1S(=O)(=O)N1CCCCCC1	-7.4%	-4.9%
CC(C)CCN(Cc1ccco1)C(=O)c1cc2c(s1)-c1ccccc1OC2	-34.1%	-2.5%
COCCNC(=O)c1sc2nc3n(c(=O)c2c1C)CCC3	6.2%	0.2%
CCOC(=O)N1CCN(C(=O)c2cnn(-c3cccc(C)c3)c2-n2cccc2)CC1	-22.3%	16.7%
COc1ccc(N2CCN(C(CNC(=O)C(=O)NCc3cccnc3)c3cccnc3)CC2)cc1 (stereo not given)	?	-28.8%
CCCCN(CC)C(=O)c1cc2c(=O)n3cccc(C)c3nc2n1C	-6.2%	-17.4%
COc1ccc(C2=NN(C(C)=O)C(c3cn(-c4ccccc4)nc3-c3cccs3)C2)cc1 (stereo not given)	-26.3%	-5.5%
CSc1cccc(Nc2cc(C(=O)NC3CCCCC3)c3ccccc3n2)c1	-30.0%	-49.3%
CCOC(=O)c1c(C)[nH]c(CCC(=O)NCCCN2CCN(c3cc(C)ccc3C)CC2)c1C	?	12.1µM*
COc1ccccc1NC(=O)C1CCN(S(=O)(=O)c2cn(C)cn2)CC1	-15.5%	6.3%
Cc1cccc(C)c1NC(=O)Cn1c(SCC(=O)NCc2ccccc2)nc2ccccc21	0.0%	-10.9%
COc1ccc(-c2noc(-c3ccc(N4CCN(c5ccccc5)CC4)c([N+](=O)[O-])c3)n2)cc1	-5.3%	3.0%
CC1=C(c2ccc(F)cc2)S(=O)(=O)N=C1N1CCC(C(=O)NCCc2ccccc2)CC1	-10.8%	-3.6%
Cc1ccc(NC(=O)Cn2c(CCC(=O)O)ccc2-c2cccs2)cc1	-28.4%	10.4%
O=C(c1ccc2c(c1)N(Cc1cccc(Cl)c1)C(=O)c1ccccc1S2(=O)=O)N1CCC(Cc2ccccc2)CC1	-41.9%	-45.8%
Cc1nnc(N2C(=O)c3oc4ccccc4c(=O)c3C2c2cccc(OCCC(C)C)c2)s1 (stereo not given)	-15.6%[11.5 µM]	6.6%
COc1cc2nc(N3CCN(C(=O)c4ccco4)CC3)nc(N)c2cc1OC	?	.
CCOc1ccc(N(CC(=O)NCc2ccc(C)cc2)S(=O)(=O)c2c(C)[nH]c(=O)[nH]c2=O)cc1	-6.3%	-40.7%
Cc1c(NC(=O)C(F)(F)F)ccc2nc3c(=O)n(C)c(=O)n(C)c3nc12	0.0%	-48.3%
CCOc1ccc2nc(C)cc(Nc3ccccc3OCC)c2c1	-28.1%	?
CN(C)CCNC(=O)C1CCN(Cc2cc3ccccc3n2Cc2ccccc2)CC1	?	?
Cc1nc2c(C(=O)NCCc3ccc(Cl)cc3)c[nH]n2c(=O)c1Cc1ccc(Cl)cc1	-27.4%	3.0%
COc1cccc(Nc2nc3ccc(C(=O)c4ccccc4)cc3n3c(C)nnc23)c1	-1.8%	?
CCOc1cc(C(=O)Nc2c(NC)c3ccccc3oc2=O)cc(OCC)c1OCC	19.8%	-5.9%
Cc1ccc2[nH]c(=O)c3cc(C(=O)NCCc4ccc(Cl)cc4)sc3c2c1	-3.7%	?
COc1ccc(SCc2cc(=O)c3cc(Cl)ccc3[nH]2)cc1	?	?
COc1ccc(NC(=O)c2c(-c3ccc(C)cc3)nnc3ccccc23)c(OC)c1	-30.0%	1.9%
COc1ccc(OC)c(CNC(=O)Cc2ccc(NC(=O)N3CCSc4ncccc43)cc2)c1	?	-16.8%
COc1cccc(NC(=O)CN(CCc2ccccc2)S(=O)(=O)c2ccc(Cl)cc2)c1	-18.2%	6.5%
Cc1cccc(Cc2cnc(NC(=O)c3ccc4c(c3)CC(c3ccccc3)OC4=O)s2)c1 (stereo not given)	?	-12.9%
O=C(Nc1ccccc1C(F)(F)F)N1CC=C(c2c[nH]c3ccccc23)CC1	-16.9%	-13.6%
COc1cccc(-n2ccn(CC(=O)NCc3ccc(C)cc3)c(=O)c2=O)c1	-16.0%	-24.4%
COc1ccc(Cl)cc1-n1nnc(-c2nc(-c3ccccc3)no2)c1C	9.4%	-7.9%
Cc1cccc(OCC(=O)Nc2c(C(=O)N3CCN(c4ccccc4)CC3)oc3ccccc23)c1	-10.3%	-13.4%
COc1ccc(Cn2c(CNS(=O)(=O)c3ccc4c(c3)CCCC4)nc3cccnc32)cc1	-14.4%	-18.2%
CCOc1ccccc1C(=O)Oc1c(S(=O)(=O)c2ccc(C)cc2)c(C)nn1-c1ccccc1	?	?
Oc1ccc(NCc2ccccc2OCc2ccccc2Cl)cc1	-18.5%	6.96µM*
COc1ccc(NC(=O)Cn2c(SCc3c(F)cccc3Cl)nc3ccncc32)cc1OC	-6.7%	1.0%
CCOc1ccccc1NC(=O)C1=C(C)Nc2ncnn2C1c1ccc(NC(C)=O)cc1 (stereo not given)	-4.4%	-8.1%
Cc1cc(C)c(NC(=O)Cn2c(=O)n(-c3ccc(F)cc3)c(=O)c3c(C)c(C(=O)N(C)C)sc32)c(C)c1	-17.7%	-10.0%
CCc1ccc(-n2c(=O)c3c4c(sc3n(CC(=O)N3CCC(C)CC3)c2=O)CCC4)cc1	-13.1%	24.6%
Fc1ccc2c(c1)-c1nc(-c3ccccc3)cc(-c3ccccc3)c1CO2	-6.1%	8.2%
COc1ccccc1CNC(=O)CN1C(=O)CCc2cc(S(=O)(=O)N3CCCCC3)ccc21	5.0%	28.7%

Next section:
SMILES	HTT promoter inh	PMP22 txn prim
Cc1ccc(NC(=O)Nc2nnc(N(C)Cc3ccccc3)s2)c(C)c1	-1.9%	-19.8%
Cc1ccccc1-c1noc(-c2ccc(N3CCCCC3)c([N+](=O)[O-])c2)n1	?	5.3%
COc1ccc(OC)c(CCNc2ncnc3onc(C)c23)c1	15.8µM*	11.3µM*
Cc1ccc(CSc2nncn3c2cc2sccc23)cc1	2.2%	-2.9%
Cc1cccc(-c2nnc(C3CCN(S(=O)(=O)c4cccc(Cl)c4)CC3)o2)c1	?	?
N#Cc1c(C2CCNCC2)cc(-c2c(O)cccc2OCC2CC2)nc1N	-2.5%	.
O=c1c2ccccc2n(Cc2cccc(F)c2)c(=O)n1Cc1ccccc1Cl	-33.5%	-1.2%
COc1ccc(OCC(=O)NCC(c2ccc(Cl)cc2)N2CCCCC2)cc1 (stereo not given)	-12.7%	-43.3%
COc1ccc(C(=O)Nc2nnc(S(=O)(=O)N3CCCCCC3)s2)cc1OC	-18.3%	?
Cc1cc(NC(=O)CC(C)C)cc(-c2nc3ncccc3o2)c1O	-5.9%	-15.3%
CC1=C(c2ccc(C(C)C)cc2)S(=O)(=O)N=C1N1CCN(c2ccccc2F)CC1	-24.7%	-17.7%
COc1ccc(Cl)cc1NC(=O)CSc1nc(-c2ccco2)cc(C(F)(F)F)n1	?	-18.3%
CCc1ccc2nc(N(CCN(CC)CC)C(=O)c3ccco3)sc2c1	24.5%	-43.4%
Cc1cccc(CNS(=O)(=O)c2ccc(-c3coc(C)n3)cc2)c1	?	-46.8%
COc1ccc(S(=O)(=O)N2CCN(c3ccc(F)cc3)CC2)cc1-c1noc(C)n1	-17.3%	-26.5%
Cc1c(/C=C(\C#N)C(=O)Nc2cccc(Cl)c2)c2ccccc2n1Cc1ccccc1Cl	-23.3%	?
Oc1cccc(Nc2nc(-c3ccccc3)nc3ccccc23)c1	-18.2%	?
COc1cccc(N2CC(NC(=O)CCCc3ccccc3)CC2=O)c1 (stereo not given)	-14.0%	0.0%
Cc1cccc(-c2noc(CN(C(=O)COc3ccc(Br)cc3C)C(C)C)n2)c1	-29.0%	?
CCCOc1cccc(C2c3c(oc4ccccc4c3=O)C(=O)N2c2nncs2)c1 (stereo not given)	-8.0%	-33.7%
CC(=O)N1CCCc2cc(S(=O)(=O)N3CCC(C(=O)NCc4ccc(C)cc4)CC3)ccc21	-11.2%	1.5%
CCNC(=O)c1ccc2c(c1)nc1n2CCCCC1	69.2%[activator]	1.0%
O=C(NCCc1csc(-c2cccnc2)n1)c1cccc(Cl)c1	-33.7%	?
CC(=O)N1CCCC1c1nc2ccccc2n1Cc1cc(C)ccc1C (stereo not given)	-29.5%	?
COc1cc(Nc2nc3c(S(=O)(=O)c4ccccc4)nnn3c3ccc(Cl)cc23)cc(OC)c1	2.2%	13.7%
Cc1ccc(Cl)cc1N1CCN(C(=O)c2ccc3c(c2)N(Cc2ccc(F)cc2)CCS3)CC1	?	-23.9%
COc1ccccc1Oc1nc2c(c(=O)n(C)c(=O)n2C)n1Cc1cccc(Br)c1	?	-25.2%
Cc1cc(C)cc(OCc2ccc(C(=O)Nc3ccccc3F)o2)c1	-3.7%	1.8%
COc1cccc(NC(=O)C2CCN(S(=O)(=O)c3c(C)noc3/C=C/c3cccs3)CC2)c1	?	-6.0%
O=C(NCCc1ccc(Cl)cc1)c1nc(-c2cccc(F)c2)n2c1CCCCC2	?	-29.5%
COc1cc(C(=O)Nc2nc3c(s2)Cc2c(Br)ccc(OC)c2-3)cc(OC)c1OC	-16.4%	?
CC(C)c1nn2c(=O)cc(COC(=O)CNC(=O)c3ccccc3Cl)nc2s1	-18.2%	?
CC(C)(O)Cn1c(NC(=O)c2ccc(-c3cn[nH]c3)s2)nc2cc(CN3CCOCC3)ccc21	?	.
COc1ccccc1CNC(=O)Cn1nc(C)n2cccc2c1=O	-3.8%	-18.9%
CCOc1ccc(CN(C(=O)c2nc(SC)ncc2Cl)C2CCS(=O)(=O)C2)cc1 (stereo not given)	-4.6%	-26.8%
Cc1ccc(NC(=O)CCCn2c(=O)c3cccn3c3cccnc32)c(C)c1	-4.0%	-10.1%
CCOc1ccc(Nc2nc3c(S(=O)(=O)c4ccc(CC)cc4)nnn3c3ccc(Cl)cc23)cc1	-4.1%	7.94µM*
O=C(CS(=O)(=O)c1cccc2nsnc12)Nc1ccccc1	-0.8%	-3.8%
CC(C)(C)C(=O)Cn1c(=O)n(CCCCCC(=O)NCc2ccc3c(c2)OCO3)c(=O)c2sccc21	-13.9%	-22.2%
Cc1ccc(S(=O)(=O)c2cn(Cc3ccccc3)c3cc(N4CCCCC4)c(F)cc3c2=O)cc1	9.8%	-12.3%
Cc1cccc(C)c1NC(=O)CN1CCCCCC1	11.2%	.
CCc1ccc(C2CC(=O)c3c([nH]c(C(=O)OC4CCCC4)c3C)C2)cc1 (stereo not given)	5.4%	-29.6%
CCOc1ccc(CNC(=O)C2Cc3ccccc3N2C(=O)CC)cc1 (stereo not given)	-3.6%	5.6%

Single records, as listed above.
Record of COc1ccccc1CNC(=O)Cn1nc(C)n2cccc2c1=O = HTT promoter inh = -3.8%; PMP22 txn prim = -18.9%
Record of CCOc1ccc(CN(C(=O)c2nc(SC)ncc2Cl)C2CCS(=O)(=O)C2)cc1 (stereo not given) = HTT promoter inh = -4.6%; PMP22 txn prim = -26.8%

Compound activity deposited in PubChem BioAssay by National Center for Advancing Translational Sciences (NCATS).
